# From PubChem BioAssay
# BJeLR lethal: BJeLR cell viability loss; BJeLR (HRASV12) viability, CellTiter-Glo ATP luminescence, 48 h; reference of the scale not given here; inhibition, % (test concentration not listed); actives 0.17% (n = 300,000); AID 1554;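 active = replicate mean above 50%; inconclusive = above 50% but judged a plate artefact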;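 also: 50 nL library stock added to about 25 µL; numbers are from one replicate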
# Autofluor counter: compound fluorescence in toxin protease inhibitor counterscreen. compound autofluorescence counterscreen, microsphere flow cytometry; stronger effect = higher value. fluorescence intensity (no concentration beside the values). actives 3.1% (n = 360,000). AID 624483;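 active = at least 3 SD above the mean of all compounds, about 16000 in these data; inconclusive = too few beads counted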;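 also: 100 nL of 1 mM stock went into each well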
# Sa RN4220 lethal: S. aureus RN4220 growth inhibition; OD600, 16 h; inhibition, % (concentration not given with the values); actives 0.33% (n = 330,000); AID 1259311;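 active = z-score of -3 or lower and OD600 up to 0.18 on both plates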;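 also: plate controls were untreated cells for no effect and reference antibiotic for full effect; stock transfer was 100 nL into about 80 µL; one replicate is shown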
# Mtb hypoxia inh: reduces hypoxia-regulated biosensor signal in M. tuberculosis. M. tuberculosis hypoxia-regulated fluorescent reporter, fluorescence. fluorescence inhibition, % (concentration not given with the values). actives 0.1% (n = 300,000). AID 1159583;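 active = 35 to 45% if threefold the growth effect, above 45% if 1.5-fold the growth effect; inactive = the rest, general growth blockers included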;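 also: wells of about 50 µL received 100 nL stock; 0% = vehicle wells and 100% = reference inhibitor wells; whole bacteria with a GFP reporter of the hypoxia response; strong numbers were not always called active; many hits fall short of the cut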
# Sa ugtP lethal: growth inhibition of S. aureus ugtP deletion strain. S. aureus RN4220 ugtP deletion, OD600 growth, 16 h; some inactives read as strong as hits. growth inhibition, % (test concentration not listed). actives 0.54% (n = 330,000);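 active = z-score under -3 and OD600 up to 0.15 on both plates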;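 also: plate controls were untreated wells for no effect and antibiotic for full effect; wells of about 80 µL received 100 nL stock; the first replicate is given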
# PrP UTR inh: suppresses PrP 5' UTR mRNA reporter expression; cell-based PrP 5' UTR mRNA reporter, plate reader; inhibition, % (no concentration beside the values); actives 0.35% (n = 340,000); AID 488862;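 active = every replicate at 50% or more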;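 also: 0 = median of the neutral control wells; tested in H4 reporter cells; numbers are from one replicate; inactives centre near -14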
# Mtb hypoxia inh growth: second read-out of Mtb hypoxia inh, no call of its own (marks repeat the call); growth inhibition, %; measured here: M. tuberculosis growth (absorbance);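 0% = vehicle and 100% = reference antibiotic; read after six days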
# Starred values were filed as active, the others as inactive; ? = inconclusive; / = not tested or not shown; & = joins results of further samples; ! = not active in a repeat.
SMILES,BJeLR lethal,Autofluor counter,Sa RN4220 lethal,Mtb hypoxia inh,Mtb hypoxia inh growth,Sa ugtP lethal,PrP UTR inh
O=C(NCCO)C(c1ccccc1)c1ccccc1,-7,10051,4.9,4,6,-4,-20
CCOc1ccc(OCC(O)CN2CCc3ccccc3C2)cc1 (stereo not given),4,3700,3.7,4,3,6,-14
CC(=O)Nc1ccc(N2C(=O)CC(c3ccccc3)CC2=O)cc1,-7,3839,5.0,-4,4,6,-36
Brc1ccc2ncnc(NCc3cccnc3)c2c1,5,4183,2.8,15,16,-6,12
CC[C@H](CO)Nc1nc(Nc2cccc(Cl)c2)c2ncn(C(C)C)c2n1,-3,3174,/,/,/,/,2
Cc1nn(-c2ccccc2)c(N2CCCC2)c1/C=N/NC(=S)Nc1cc(C(F)(F)F)ccc1Cl,2,9071,/,/,/,/,-57
Cc1cc(NC(=O)COc2ccccc2C)ccc1NC(=O)c1cccs1,2,4519,6.4,1,-2,2,7
CC(=O)c1sc(NC(=O)CN2C(=O)C3CCCCC3C2=O)nc1-c1ccccc1 (stereo not given),/,/,11,5,5,6,-9
O=C(CSc1ncnc2nc[nH]c12)c1ccc([N+](=O)[O-])cc1,1,6201,1.0,6,31,-7,-21
CSC1=NCCN1C(=O)c1ccc(S(=O)(=O)N(C)C)cc1,4,5560,-0.4,/,/,5,-29
CSc1ccc(/C=N/NC(=O)CN2CCN(Cc3ccc(C)cc3)CC2)cc1,-1,2176,/,/,/,/,-13
O=C(COc1ccc(Cl)cc1Cl)NN=CCCc1ccccc1,/,/,1.3,12,-1,10,/
CC(=O)c1cccc(CN2CCCC(N3CCN(c4ccccc4F)CC3)C2)c1 (stereo not given),-4,3715,1.5,2,-7,14,-16
CCCCCCc1nc2ccccc2c(=O)n1NC(=O)c1c(O)c2c(n(CC(C)C)c1=O)CCCC2,5,4770,-1.6,/,/,-6,-16
COc1cccc(NC(=O)Nc2ccccc2SC)c1,4,2578,0.9,-1,14,4,-10
Cc1cccc(N(CC(=O)Nc2c(C)n(C)n(-c3ccccc3)c2=O)S(C)(=O)=O)c1,-8,6727,1.2,1,3,3,-7
CCOC(=O)c1c(-c2ccccc2)c[nH]c1C,/,3022,5.4,-15,3,4,-38
CN(C(=O)CSc1nnc(N)s1)C1CCCCC1,0,5521,1.7,6,11,7,-2
CN(C)c1ccc(C(CNC(=O)Cc2cccc3ccccc23)N(C)C)cc1 (stereo not given),-6,6519,0.0,-3,5,-3,0
Cc1ccc(C(=O)C[n+]2cc(-c3ccccc3)n3c2CCCCC3)cc1,11&15,25109*!,4.1&0.5,0&6,5&16,-6&-5,-31&-12

# Whole records from above. Values in the order: BJeLR lethal | Autofluor counter | Sa RN4220 lethal | Mtb hypoxia inh | Mtb hypoxia inh growth | Sa ugtP lethal | PrP UTR inh
# `COc1cccc(NC(=O)Nc2ccccc2SC)c1` as listed: 4 | 2578 | 0.9 | -1 | 14 | 4 | -10
# `CN(C)c1ccc(C(CNC(=O)Cc2cccc3ccccc23)N(C)C)cc1` (stereo not given) as listed: -6 | 6519 | 0.0 | -3 | 5 | -3 | 0
# `CCCCCCc1nc2ccccc2c(=O)n1NC(=O)c1c(O)c2c(n(CC(C)C)c1=O)CCCC2` as listed: 5 | 4770 | -1.6 | / | / | -6 | -16
# `CSc1ccc(/C=N/NC(=O)CN2CCN(Cc3ccc(C)cc3)CC2)cc1` as listed: -1 | 2176 | / | / | / | / | -13

# (further entries)
SMILES,BJeLR lethal,Autofluor counter,Sa RN4220 lethal,Mtb hypoxia inh,Mtb hypoxia inh growth,Sa ugtP lethal,PrP UTR inh
CN(c1ccccc1)S(=O)(=O)c1ccc(C(=O)Nc2nnc(C3=COCCO3)o2)cc1,5,2177,11,0,6,-10,-10
COc1ccc2[nH]c(C(=O)NCCN3CCOCC3)cc2c1,-14,5993,-3.6,-11,-9,-6,-28
CCNc1nc(OCC)nc(N2CCC(Cc3ccccc3)CC2)n1,-2,2753,1.0,8,2,-1,-18
Cc1ccc(-c2nc3c(c(=O)c4ccccc4n3C)c(=O)n2Cc2ccco2)cc1,-10,?,/,/,/,/,-7
Oc1ccccc1/C=N/n1c2ccccc2c2ccccc21,10,11532,/,/,/,/,-17
COC(=O)C1CCN(C(=O)CSc2nc3nc(C)cc(C)n3n2)CC1,/,7243,-1.6,-2,2,4,-14
CS(=O)(=O)NCCSCc1ccccc1,0,4466,-1.5,/,/,10,-14
CCOC(=O)CNC(=O)c1ccc(C#CC2(O)CCCCC2)cc1,3,2601,-0.7,10,8,10,-21
COc1ccc(NS(=O)(=O)c2cc(NC(=NS(=O)(=O)c3ccccc3)c3ccc(F)cc3)ccc2Cl)cc1,/,/,5.4,1,6,-18,/
Cc1c(-n2cc(C(=O)c3cc(F)ccc3O)cc(C#N)c2=O)c(=O)n(-c2ccccc2)n1C,7,3561,4.0,0,0,4,-13
CCOc1ccc(C=NNC(=O)CNC(=O)c2ccc(S(=O)(=O)N3CCOCC3)cc2)cc1,/,/,4.0,16,6,-1,/
C#CCSC1=C(C#N)C(c2cccs2)C(C(=O)OCC)=C(C)N1 (stereo not given),-2,10963,1.8,-4,5,-17,-41
O=C(Nc1cnn(Cc2ccccc2)c1)c1nc2ncccn2n1,5,3579,-9.7,9,4,1,-20
CCOC(=O)C1C(=O)C=C(C=Cc2ccc(N(C)C)cc2)CC1c1ccccc1 (stereo not given),/,/,12,5,10,3,/
CC(OC(=O)Cc1ccc(Br)cc1)C(=O)NC1CCCCC1C (stereo not given),-17,5134,1.1,3,4,1,-6
Cc1ccc2c(c1)c1c3n2CCN=C3CCC1,4,3480,2.2,/,/,0,-17
CCc1noc(C)c1C(=O)Nc1nc(-c2ccc(Cl)cc2Cl)cs1,-9,2548,14,13,4,-4,-2
CC1(C)CC(NCc2cccc([N+](=O)[O-])c2)CC(C)(C)N1,1,3958,0.0,15,10,16,-17
COc1ccc(Br)cc1C(=O)N/N=C/c1ccc([N+](=O)[O-])cc1,8,3462,/,/,/,/,-22
CCCOP(=O)(c1ccc(N(C)C)cc1)C(O)c1ccc(Cl)cc1Cl (stereo not given),8,4591,2.2,2,-7,-3,-10
CCOC(=O)c1nnn(CC(=O)Nc2cccc(OC)c2)c1C(=O)OCC,-4,4846,2.0,/,/,5,-4
CCOc1ccc(OCCC(=O)OCC(=O)NNC(=O)c2ccccc2)cc1,-8,?,3.7,1,-4,15,-5
Cn1c(SCC(=O)NC(c2ccccc2)c2ccccc2)nnc1-c1cccs1,26,2277,-3.6,/,/,11,-17
COc1ccccc1N(CC(=O)NCc1cccnc1)S(C)(=O)=O,-6,10692,0.9,6,4,10,-34
CCCNC(=O)N1CCC2(CC1)OCCO2,5,2050,1.4,5,-2,5,-10
CN(Cc1nnc(SCC(=O)NCCc2ccccc2)n1C)S(=O)(=O)c1ccccc1,-12,2902,-15,6,7,0,-13
CC(C)c1cc(CNC(=O)c2cc(COc3cncc(Cl)c3)on2)on1,0,5241,-6.4,2,-9,-5,-23
N#CCCSc1nc(N2CCOCC2)c2c(c1C#N)CCCC2,-1,10252,3.9,1,2,6,-20
COc1ccc(C(=O)Nc2ccccc2C(=O)N2CCCCCC2)cc1,7,4594,3.0,19,5,1,-9
Cc1ccc(C(C)C)c(OCc2ccc(C(=O)N/N=C/c3ccc(C(=O)O)cc3)cc2)c1,-6,5632,/,/,/,/,3
COc1ccccc1Oc1ccc2c(c1)C(=O)N(c1cccc(O)c1)C2=O,-3,5263,13,3,3,15,-20
Cc1ccc(C)c(NC2=NC3(CCCCC3)N=C(N)N2)c1,0,7589,2.4,-1,0,13,-17
Cc1ccc(CN=C2Nc3ccccc3CS2)cc1,-1,7690,41,-21,0,82*,-24
CCOC(=O)c1c(C)n(C)c2cc([N+](=O)[O-])c(O)c([N+](=O)[O-])c12,9,3816,13,7,-1,9,/
COc1cc(-c2nc(CN(C)Cc3nnc(C)o3)c(C)o2)ccc1F,-6,3205,11,-1,-2,3,-15
Cc1cc(C(=O)OC(C)C(=O)Nc2nc(-c3ccccc3)cs2)c(C)o1 (stereo not given),8,5365,-11,5,0,-8,-11
CC(=O)/C(N=Nc1cc2c(cc1[N+](=O)[O-])OCCO2)=C(\C)O,8,4525,1.0,-13,-2,-4,-10
CC(C)CCNC(=O)c1ccc(C2SCC(=O)N2Cc2ccco2)cc1 (stereo not given),-5,3453,4.6,-2,10,-6,4
Cc1cc(NS(=O)(=O)c2ccc(NC(=O)C(F)(F)F)cc2)nc(C)n1,-7,3382,-1.1,-4,-5,10,-3
COc1ccc(C(=O)Nc2ccc(S(=O)(=O)Nc3cnc4ccccc4n3)cc2)cc1,-6,4073,9.7,9,5,10,-9
COc1ccc(-c2nnc(SCC(=O)N(C)C3CCS(=O)(=O)C3)n2C(C)C)cc1 (stereo not given),/,2876,-0.8,-2,2,0,-11
COc1ccc([N+](=O)[O-])cc1N(CC(=O)NCC1CCCO1)S(C)(=O)=O (stereo not given),-2,2054,1.9,9,0,1,-26
COc1cc(CNc2ccc3[nH]c(=O)[nH]c3c2)ccc1OCc1ccccc1,-3,3535,3.6,4,6,12,-44
O=C(NCC1CCN(Cc2ccccc2F)CC1)Nc1cc(F)ccc1F,0,3815,-1.3,10,9,5,-13
COc1ccccc1NC(=O)c1ccc2[nH]c(C)c(C)c2c1,-7,3825,0.0,/,/,-13,/
O=C(COc1cccnc1[N+](=O)[O-])NCc1cccs1,11,4352,-1.2,4,13,9,-31
O=C(NN=Cc1ccccc1)NN=Cc1ccccc1,/,3360,6.3,12,9,-11,-22
Cc1cc2c(Nc3cccc(O)c3)ncnc2s1,-2,3662,3.4,10,13,-4,-16
CCC(Sc1nnc(-c2ccco2)n1C)C(=O)Nc1nnc(C)s1 (stereo not given),-7,3730,0.6,5,8,7,-27
COc1ccc2c3c1O[C@H]1C[C@@H](O)C=C[C@@]31CCN(C)C2,4,4437,/,/,/,/,48
CCN1CCN(c2ccc([N+](=O)[O-])cc2C(=O)c2ccc(Cl)cc2)CC1,16,3073,5.6,6,12,0,-28
O=C(CC1C(=O)NCCN1Cc1c(F)cccc1Cl)NC1CCCC1 (stereo not given),-4,4723,3.7,6,9,2,-10
CC(OC(=O)/C=C/c1ccc(Br)cc1)C(=O)N1CCOCC1 (stereo not given),-1,?,/,/,/,/,-6
O=C(NCCc1ccc(C(F)(F)F)cc1)c1ccc2c(c1)OCO2,/,3950,6.3,8,7,-2,-19
CCOC(=O)c1c(NC(=S)Nc2ccc(F)cc2)sc2c1CCC2,-3,6187,5.0,6,6,-11,-16
Cc1sc(NC(=O)CN2CCN(c3ccccn3)CC2)c(C#N)c1C,23,3666,3.5,/,/,10,-3
NC(=O)/C(=C\c1cccnc1)NC(=O)c1ccccc1,3,4412,6.3,1,2,4,-20
Cc1c(CCC(=O)NCCCn2ccnc2)c(=O)oc2c(C)c3occ(C(C)(C)C)c3cc12,8,4325,6.0,6,2,9,-29
NC(=O)CC(NC(=O)Cc1cccc2ccccc12)c1ccc(NCc2ccc(F)cc2)c([N+](=O)[O-])c1 (stereo not given),2,3580,/,/,/,/,75*
O=C1COc2ccc(C(=O)COc3ccc([N+](=O)[O-])cc3)cc2N1,-2,6442,1.2,12,1,4,-19
# (more compounds)
SMILES,BJeLR lethal,Autofluor counter,Sa RN4220 lethal,Mtb hypoxia inh,Mtb hypoxia inh growth,Sa ugtP lethal,PrP UTR inh
O=C(CCn1c(=S)[nH]c2ccccc2c1=O)Nc1ccc(F)cc1,1,5662,3.8,-4,-3,-7,-9
O=C(C1CC1)N1CCc2cc(S(=O)(=O)NCC3COc4ccccc4O3)ccc21 (stereo not given),-1,4293,1.4,/,/,3,-18
O=C1CC(N2CCN(c3cccc(C(F)(F)F)c3)CC2)C(=O)N1c1ccccc1 (stereo not given),5,20561*,2.8,5,15,2,-13
Cc1cc(C)n2nc(CNS(=O)(=O)c3ccc(F)cc3)nc2n1,12,5442,1.8,3,3,6,2
CC(C)c1ccc(NC2CCCN(C(=O)CSc3nncn3C)C2)cc1 (stereo not given),-20,4515,-2.2,11,4,1,-15
CCn1nnc2cc(C(=O)N(CCOC)CC(=O)Nc3cccc(C)c3C)ccc21,/,4198,-0.5,-5,6,5,-16
CCCSc1cc(NCCOC(C)=O)c([N+](=O)[O-])c2nonc12,2,2155,2.0,/,/,-2,-4
CCOc1ccc(NS(=O)(=O)c2ccc(C(=O)NC3CCN(Cc4ccccc4)CC3)cc2)cc1,3,?,2.6,7,2,1,-7
